# VDR inh – vitamin D3 receptor (human) inhibition. P11473. VDR-SRC2-3 peptide fluorescence polarization, 2 h. Potency, µM, for inactives: max response, negative = inhibition, hits mostly inhibitors. hit rate 0.93% among 400,000. AID 504847; active = well fitted inhibition curve with a large enough effect; inconclusive = small, poorly fitted or top-dose-only effect, or another doubt; inactive = no such curve, though single readings can be large or run the other way; also: series mostly up to about 120 µM
# Target sequence (P11473 whole entry, looked up): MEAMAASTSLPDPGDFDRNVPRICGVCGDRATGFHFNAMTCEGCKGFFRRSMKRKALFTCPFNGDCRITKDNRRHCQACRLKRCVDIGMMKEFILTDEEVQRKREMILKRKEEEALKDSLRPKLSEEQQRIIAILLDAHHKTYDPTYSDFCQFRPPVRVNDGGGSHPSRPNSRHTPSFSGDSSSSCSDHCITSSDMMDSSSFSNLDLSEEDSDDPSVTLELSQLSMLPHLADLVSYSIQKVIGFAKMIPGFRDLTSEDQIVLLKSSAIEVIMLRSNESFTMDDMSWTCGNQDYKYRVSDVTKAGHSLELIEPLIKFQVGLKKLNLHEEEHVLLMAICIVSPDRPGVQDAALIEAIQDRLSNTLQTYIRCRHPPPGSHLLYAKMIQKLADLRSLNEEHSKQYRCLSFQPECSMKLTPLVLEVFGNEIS
#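 Inhibition of the VDR/SRC2-3 peptide interaction is quantified by fluorescence polarization. Compounds (23 nl, pintool) incubate with the reagents for 2 hours at ambient room temperature.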
# The depositor's hits bear a star; ? = inconclusive; & = joins results of further samples. % is scaled to controls: 0 for no effect and ±100 for the full control effect; potency is read from the fitted curve at half-maximal effect. Only part of the results is shown. The share of hits here may be higher or lower than overall.
SMILES	VDR inh
COc1ccc(CCNC(=O)C2CCN(Cc3nc(-c4ccc(Cl)cc4)oc3C)CC2)cc1OC	6%
CCCN(CC(=O)Nc1ccccc1C)C(=O)CCCOc1ccc(Br)cc1	3%
Cc1ccc(-n2[nH]c(C)c(/C=N/c3cccc(C)n3)c2=O)cc1	2%
Nc1ncnc2c1ncn2[C@@H]1O[C@H](CO)[C@@H](O)[C@H]1O	0%&-14%&-4%&-11%
O=C(Nc1nnc(-c2cccs2)o1)c1ccc(S(=O)(=O)N2CCOCC2)cc1	-5%
CC(=O)C1C(c2ccc(Cl)cc2)c2c(n[nH]c2C)CC1(C)O (stereo not drawn)	1%
O=C(CCCC(=O)NC1CCCCC1)Nc1ccc([N+](=O)[O-])cc1	-9%
O=C(Nc1nc(-c2ccccc2)cs1)C1CCCCN1S(=O)(=O)c1ccccc1 (stereo not drawn)	6%
COCCNC(=O)Cn1cnc2c(cnn2-c2ccc(OC)cc2)c1=O	-11%
COc1ccc(NC(=O)c2cc(S(=O)(=O)N3CCCC(C)C3)cn2C)c(OC)c1 (stereo not drawn)	-12%
CCN(CC)CCCn1c2c(c(SCC(=O)Nc3cccc(C)c3C)nc1=O)CCC2	-6%
Cc1ccc2c(c1)N(CC(=O)O)C(=O)CO2	8%
Oc1cc2c(cc1C(c1ccc(Cl)c(Cl)c1)N1CCCC1)OCO2 (stereo not drawn)	?
O=C(NCC1CCCO1)c1cc2ccccc2cc1O (stereo not drawn)	4%
O=C(O)c1ccc(OC2CSC2)cc1	8%
NCCCCCc1cn([C@@H](CO)C(=O)NCCCCCCCCCCC(=O)N2CCNCC2)nn1	-7%
COc1cc(NC(=O)CSc2nnnn2-c2ccccc2)cc(OC)c1OC	-11%
O=c1c2ccccc2n2c(-c3cccc(Cl)c3)nnc2n1Cc1ccccc1	6%
Oc1cccc(C2c3[nH]c4ccccc4c3CCN2Cc2ccc3c(c2)CCO3)c1 (stereo not drawn)	4%
CCN(CC(=O)NCC1CCCO1)S(=O)(=O)c1ccc2ccccc2c1 (stereo not drawn)	14%
COc1c(S(=O)(=O)N2CCN(C(=O)c3ccco3)CC2)ccc(Cl)c1Cl	-21%
COc1ccc(CNc2cc(-c3ccc(OC)cc3)nc3nncn23)cc1	6%
Cc1ccc(/C(O)=C2\C(=O)C(=O)N(c3cc(C)on3)C2c2cccc(Cl)c2)cc1 (stereo not drawn)	-1%
Cc1ccccc1NC(=O)Cc1nc(COC(=O)CNS(=O)(=O)c2cccc(Br)c2)cs1	0%
CCOC(=O)CNC(=O)CSc1nc2cccnc2n1CC	15%
Fc1cccc(NC(=S)NCCN2CCOCC2)c1	-17%
O=C(CNC(=O)c1ccco1)OCC(=O)c1ccc(Br)cc1	2%
COC(=O)CCC(=O)OC1(C)C(=O)C2=CN(CCc3ccccn3)C(c3ccc(OC)cc3)=CC2=C(Br)C1=O (stereo not drawn)	?
COc1ccc(NC(=O)CN2CCC(n3c(C)nc4cc(F)ccc43)CC2)c(OC)c1	-3%
C=CCN1C=C2C(=O)C(C)(OC(=O)c3cnc4ccccc4n3)C(=O)C=C2C=C1/C=C/COC (stereo not drawn)	-4%
O=C(CSC1=Nc2ccccc2C2=NC(c3ccccc3)C(=O)N12)NCC1CCCO1 (stereo not drawn)	2%
O=C(CC1NCCNC1=O)OCc1ccccc1 (stereo not drawn)	19%
COc1cc(C(=O)NCCc2cn3ccccc3n2)cc(OC)c1OC	-2%
CC(=O)c1ccc(S(=O)(=O)NCc2ccc(C(=O)N(C)CC(=O)Nc3cccc(F)c3)cc2)cc1	21%
CC(=O)NC1C(=O)N=C(SCC(=O)Nc2c(C)cccc2C)NC1=O (stereo not drawn)	1%
CNC(=S)NNC(=O)Cc1ccc(OC)cc1	-8%
Cc1[nH]c(C)c(S(=O)(=O)N2c3ccccc3CC2C)c1C(=O)N1CCCCC1 (stereo not drawn)	-7%
CCn1c(SCC(=O)c2ccc(Cl)cc2)nnc1-c1ccoc1C	?
Cc1cc(C)c2c(=O)[nH]c(SCC(=O)N(C)C)nc2n1	14%
CCCCNC(=O)NCC(=O)Nc1ccc(F)c(F)c1	0%

# Rewritten with values ahead of the structure: 4 of the compounds above.
VDR inh | molecule
? | COC(=O)CCC(=O)OC1(C)C(=O)C2=CN(CCc3ccccn3)C(c3ccc(OC)cc3)=CC2=C(Br)C1=O (stereo not drawn)
-3% | COc1ccc(NC(=O)CN2CCC(n3c(C)nc4cc(F)ccc43)CC2)c(OC)c1
-4% | C=CCN1C=C2C(=O)C(C)(OC(=O)c3cnc4ccccc4n3)C(=O)C=C2C=C1/C=C/COC (stereo not drawn)
2% | O=C(CSC1=Nc2ccccc2C2=NC(c3ccccc3)C(=O)N12)NCC1CCCO1 (stereo not drawn)

# Remaining list, next part:
SMILES	VDR inh
CCn1c(=O)c(=O)[nH]c2cc(C(=O)NC3CC3)ccc21	1%
O=C(CCN1CCN(C(c2ccccc2)c2ccccc2)CC1)N/N=C/c1ccc(O)cc1	-6%
Nc1ccc(Oc2ccc3c(c2)OCO3)cc1	-4%
O=C(NCCOc1ccccc1)c1cc([N+](=O)[O-])ccc1N1CCOCC1	2%
CCN(CC)c1sc(S(=O)(=O)c2ccccc2)nc1S(=O)(=O)c1ccc(C)cc1	-2%
Cc1ccccc1NC(=O)CN1CCC(n2nnc3ccccc32)CC1	-3%
COc1ccccc1N1CCN(C(=O)c2cccc(N3C(=O)NC4CC3(C)Oc3c(OC)cccc34)c2)CC1 (stereo not drawn)	-3%
COC(=O)c1ccc(N2C(=O)C3C4C=CC(CC4)C3C2=O)cc1 (stereo not drawn)	3%
CCCSC1=C(C#N)C(c2cccs2)C(C(=O)Nc2ccccc2)=C(C)N1 (stereo not drawn)	-3%
CNC(=S)N(Cc1ccc(OC)cc1)C1CC(=O)N(c2ccc(OC)cc2)C1=O (stereo not drawn)	16%
Cc1cccc(CC(=O)NCc2nc3cccnc3n2Cc2ccc(F)cc2)c1	6%
CC(=O)OC1CCC2(C)C(=CCC3C2CCC2(C)C3C[C@@H]3O[C@]32C(C)=O)C1 (stereo partly drawn)	4%
O=C(c1ccc(Cl)c(S(=O)(=O)N2CCCCCC2)c1)N1CCCC1	14%
O=c1c2cccnc2[nH]c(=S)n1CCC1=CCCCC1	6%
Cc1nc(-c2ccc(C(=O)Nc3cc(S(N)(=O)=O)ccc3C)cc2)cs1	-1%
CC(=O)Nc1sc2c(c1C(c1ccccn1)N1CCN(C)CC1)CCCC2 (stereo not drawn)	-2%
COc1cc(Nc2nc3ccccc3nc2NS(=O)(=O)c2ccc([N+](=O)[O-])cc2)cc(OC)c1OC	-12%
Cc1ccc(S(=O)(=O)N2CCC[C@H]2C(=O)Nc2ccccc2C)cc1	-7%
C#CCOCCOCCOCCNc1nc(N2CCN(C(=O)Cn3cc(CCCN=C(N)N)nn3)CC2)nc(N2CCN(C(=O)[C@H]([C@@H](C)CC)n3cc(CCC(=O)O)nn3)CC2)n1	0%
CC1(C)CC(=O)C=C(c2cccc(O)c2)C1=O	-12%

> C=CCN1C(=O)c2ccc(C(=O)NCCc3ccc(OC)c(OC)c3)cc2C1=O
  VDR inh: 8%
> CC1=C(C(N)=O)C(c2ccccn2)n2nc(-c3ccccc3Cl)nc2N1 (stereo not drawn)
  VDR inh: -12%
> CNC(=O)CS(=O)(=O)CC(=O)Nc1cc(OCCOC)c(Cl)cc1Cl
  VDR inh: -22%
> O=C(COC(=O)/C=C/c1ccc(C(F)(F)F)cc1)NCC1CCCO1 (stereo not drawn)
  VDR inh: 1%
> CC(=O)c1ccc(S(=O)(=O)Nc2ccc(-c3cn4c(C)csc4n3)cc2)cc1
  VDR inh: 25µM*
> Cc1ccccc1CN1CCN(C(=O)c2ccc(F)cc2)CC1
  VDR inh: 5%
> CCn1nnc(NC(=O)c2ccccc2Br)n1
  VDR inh: -13%
> Cc1c(C(=O)NCc2ccccc2)sc2nc[nH]c(=O)c12
  VDR inh: 3%
> O=C(CN(CCc1ccccc1)S(=O)(=O)c1ccccc1)NCc1ccc(Cl)cc1
  VDR inh: 1%
> N#CC1(c2ccccc2)CCC(NCCc2ccccc2)CC1 (stereo not drawn)
  VDR inh: -28%

> O=C(Cn1nc(CNc2ccc(Cl)cc2)[n+]2c1CCCCC2)c1ccc(Cl)cc1
  VDR inh: 79µM*
> O=C(CCS(=O)(=O)c1cccs1)Nc1ccc(C(=O)NCc2ccc(F)cc2)cc1
  VDR inh: 3%
> CC(C)(C)c1ccc(S(=O)(=O)Nc2ccc3c(c2)COC3=O)cc1
  VDR inh: -2%
> NC(=O)C1=C[C@@H](C2CCCCC2)C[C@@H](OCCCCO)O1
  VDR inh: 0%
> COc1ccc(C(=O)NC2CC(C)(C)Cc3c2cnn3-c2ccccc2C)c(OC)c1OC (stereo not drawn)
  VDR inh: -7%
> CCOC(=O)c1[nH]c2ccc(Br)cc2c1NC(=O)CNC
  VDR inh: -6%
> O=C(Cc1ccc(NC(=O)C2CCCN(C(=O)C3CC3)C2)cc1)Nc1cccc(C(=O)N2CCCC2)c1 (stereo not drawn)
  VDR inh: -3%
> COC(=O)c1cc2sc(Cl)cc2n1Cc1nc(-c2ccccc2F)oc1C
  VDR inh: -4%
> CN(C)c1oc(-c2ccc(Cl)cc2)nc1S(=O)(=O)c1ccccc1
  VDR inh: ?
> C=C(C)c1ccc(C(C)(C)NC(=O)N(Cc2ccccc2)Cc2ccco2)cc1
  VDR inh: -9%

# 3 entries picked at random from the list so far, as already listed:
> COc1ccc(C(=O)NC2CC(C)(C)Cc3c2cnn3-c2ccccc2C)c(OC)c1OC (stereo not drawn)
  VDR inh: -7%
> Cc1ccc(S(=O)(=O)N2CCC[C@H]2C(=O)Nc2ccccc2C)cc1
  VDR inh: -7%
> O=C(Nc1nc(-c2ccccc2)cs1)C1CCCCN1S(=O)(=O)c1ccccc1 (stereo not drawn)
  VDR inh: 6%

# Following part.
> Nn1cnnc1N/N=C/c1cc([N+](=O)[O-])c(Cl)cc1Cl
  VDR inh: -4%
> C=CCn1c(SCCN2C(=O)c3ccccc3C2=O)nc2scc(-c3ccc(F)cc3)c2c1=O
  VDR inh: -12%
> O=C(NCc1ccncc1)C(=O)NCC(c1ccco1)N1CCN(c2ccccc2)CC1 (stereo not drawn)
  VDR inh: -1%
> CN1C(=O)C(CCC(N)=O)NC1=S (stereo not drawn)
  VDR inh: -6%
> COCCn1c(C)cc(C(=O)CSc2nnc(-c3cccnc3)n2-c2ccccc2F)c1C
  VDR inh: 17%
> CCOC(=O)c1cnc2c(C)cccc2c1Nc1ccc(OC(C)C)cc1
  VDR inh: -24%
> COc1ccc(-c2sc(Nc3ccccc3)n[n+]2-c2ccc(F)cc2)c(OC)c1OC
  VDR inh: -10%
> Cc1ccc(NC(=O)CCc2nnc3ccc(N4CCC5(CC4)OCCO5)nn23)nc1
  VDR inh: ?
> Cc1csc(NC(=O)c2oc3ccccc3c2C)n1
  VDR inh: 7%
> Cc1ccc(C)c(NC(=O)CSc2ccc3nc(-c4ccccc4)cn3n2)c1
  VDR inh: 10%

> Cc1cccc(C(C)C)c1-n1nnnc1-c1ccccc1
  VDR inh: -6%
> COc1ccc(Cn2ccc3nc(C)c(C(=O)Nc4ccc(OC(F)(F)F)cc4)cc3c2=O)cc1
  VDR inh: 5%
> CCCN(CCC)C(=O)C1CCN(c2ccc(S(=O)(=O)N3CCOCC3)cc2[N+](=O)[O-])CC1
  VDR inh: -15%
> Cc1noc2ncnc(Oc3ccccc3)c12
  VDR inh: -8%
> C=CCn1c(-c2cc(OC)c(OC)c(OC)c2)n[nH]c1=S
  VDR inh: 6%
> N#CCCN1CCN(S(=O)(=O)c2ccc(S(=O)(=O)NC3CCCCC3)cc2)CC1
  VDR inh: -8%
> O=C(CCSCc1ccccc1)Nc1ccc2c(c1)OCCO2
  VDR inh: -11%
> Cn1c(=O)c2c(ncn2CC(=O)OCC(=O)Nc2ccc(Cl)cc2Cl)n(C)c1=O
  VDR inh: -2%
> Cc1ccc(NNC(=O)C(O)(c2cccc(C(F)(F)F)c2)c2cccc(C(F)(F)F)c2)cc1
  VDR inh: -10%
> CC(C)OCCCn1c(-c2ccco2)nc2nc3ccccc3nc21
  VDR inh: 5%

# 3 entries from above, sorted by their value in VDR inh, largest number first.
> C=CCn1c(-c2cc(OC)c(OC)c(OC)c2)n[nH]c1=S
  VDR inh: 6%
> N#CCCN1CCN(S(=O)(=O)c2ccc(S(=O)(=O)NC3CCCCC3)cc2)CC1
  VDR inh: -8%
> O=C(CCSCc1ccccc1)Nc1ccc2c(c1)OCCO2
  VDR inh: -11%

# Remaining list, next part:
> CC(=O)c1c(N2CCN(c3cccc(Cl)c3)CC2)nc(=S)n(-c2ccccc2)c1C
  VDR inh: -19%
> COc1ccc(N2C(=O)CC(Nc3cccc(C(C)=O)c3)C2=O)cc1OC (stereo not drawn)
  VDR inh: -12%
> CCCCN1CC(=O)N2[C@H]3c4cc(C)ccc4OC[C@@H]3[C@H](C(=O)OCC)[C@]2(C)C1=O
  VDR inh: 1%
> Cn1nc(C(=O)NCc2ccccc2)cc1C(=O)NCc1ccccc1
  VDR inh: 7%
> COc1ccc(Cl)cc1NC(=O)C(C)N1CCN(C/C=C/c2ccccc2)CC1 (stereo not drawn)
  VDR inh: -19%
> COc1cccc(OCc2cc(C(=O)N3CCC(C(O)C(C)C)CC3)no2)c1 (stereo not drawn)
  VDR inh: 11%
> Cc1ccc2[nH]c(O)c(N=Nc3ccccc3C)c2c1
  VDR inh: ?
> Cc1ccc(CNC(=O)c2cnc3ccccc3n2)cc1
  VDR inh: 7%
> Cc1ccc(S(=O)(=O)N2C/C=C\CN(S(=O)(=O)c3ccccc3Br)CC2)cc1
  VDR inh: -2%
> CCN(Cc1nc(-c2ccccc2)no1)C(=O)c1ccoc1C
  VDR inh: 1%

> CCC1(c2ccccc2)NC(=O)N(CC(=O)Nc2ccc(Cl)c(S(=O)(=O)N3CCCCC3)c2)C1=O (stereo not drawn)
  VDR inh: 8%
> O=C(c1cc(=O)c2ccccc2o1)N(Cc1ccccc1)C1CCS(=O)(=O)C1 (stereo not drawn)
  VDR inh: -17%
> CCC(=O)N1CCc2cc(Br)cc(S(=O)(=O)N3CCC(C(=O)Nc4ccc(OC)cc4)CC3)c21
  VDR inh: 9%
> CCc1noc(C)c1C(=O)N1CCN(S(=O)(=O)c2ccc(C)cc2)CC1
  VDR inh: -10%
